# GIV-Gai inh: inhibitors of GIV GBA-motif binding to rat Galpha-i3; 0.42% of 210,000 active; AID 1224905; percent of control (FP), % (no concentration beside the values); Galpha-i3/FITC-GIV peptide fluorescence polarization, 90 min; active compounds read low; scaled: aluminum fluoride 0%, vehicle 100%;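 active = replicate mean at 85% of control or lower, very high polarization wells dropped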;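 also: wells of about 15 µL received 100 nL stock; the first replicate is given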
# Target sequence (P08753 whole entry, looked up): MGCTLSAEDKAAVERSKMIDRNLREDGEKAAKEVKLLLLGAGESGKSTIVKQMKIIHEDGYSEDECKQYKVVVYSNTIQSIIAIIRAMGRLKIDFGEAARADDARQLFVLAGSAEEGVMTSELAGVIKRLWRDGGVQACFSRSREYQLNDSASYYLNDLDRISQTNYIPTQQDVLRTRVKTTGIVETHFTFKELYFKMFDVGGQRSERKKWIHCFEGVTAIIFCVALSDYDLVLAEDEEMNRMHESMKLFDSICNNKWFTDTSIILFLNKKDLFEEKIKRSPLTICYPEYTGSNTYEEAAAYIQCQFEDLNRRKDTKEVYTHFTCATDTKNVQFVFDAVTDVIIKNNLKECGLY
# HCMV UL50-53 inh: cytomegalovirus nuclear egress complex inhibition | HTRF UL50-UL53 interaction, normalized percent inhibition | inhibition, % (concentration not given with the values) | 0.15% of 190,000 active;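 active = both replicates at 50% or more, plus weaker picks with an unusually low signal ratio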;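 also: stock transfer was 100 nL into about 20 µL; 0% = negative control wells and 100% = wells with untagged competitor protein; inactives centre near -12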
# Sa growth inh: blocks Staphylococcus aureus growth | S. aureus RN4220 growth, OD600, 20 h, 42 °C; active compounds read low | relative growth, % (no concentration beside the values) | 0.53% of 170,000 active;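 active = growth at 42 °C up to 50% and 20 or more points under that at 30 °C, or under 10% at both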;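 also: 300 nL library stock went into each well; scaled to the means of positive and negative controls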
# Sa growth inh second temp: second read-out of Sa growth inh, no call of its own (marks repeat the call); relative growth, %; measured here: growth at 30 °C;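 optical density after 20 h as mean of two plates; 100% = untreated growth and lower means inhibition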
# Numbers without * were called inactive; / = no result given; & = joins results of further samples. The list is partial; count on the stated rates, not on these rows.
SMILES,GIV-Gai inh,HCMV UL50-53 inh,Sa growth inh,Sa growth inh second temp
C/C=C/C(=O)N(CC)c1ccccc1C,103.6,-2.8&-23.5&4.1,97.2&93.8&99.0,89.6&80.9&96.8
CCOC(=O)[C@H](CCc1ccccc1)N[C@@H](C)C(=O)N1Cc2ccccc2C[C@H]1C(=O)O,98.8,-41.1&-31.9&-20.2&-59.4,97.6&90.9,93.3&82.0
CCCCNc1ccc(C(=O)OCCN(C)C)cc1,94.5,-16.4&-37.5&-13.3&-10.4,92.2,97.0
CC[C@H](NC(C)C)[C@H](O)c1ccc(O)c2[nH]c(=O)ccc12,107.8,-40.4&-4.6,85.7,80.0
COCCn1c(SCC(=O)Nc2ccc(F)c(Cl)c2)nc2c(oc3ccccc32)c1=O,97.9,-20.6,108.4,71.6
CCN(CC)CCOC(=O)c1ccc(N)cc1,109.7,-41.3&7.4&-3.1&2.4&-14.8,97.1,85.6
Cc1ccc(-n2ccn3c(CCC(=O)NCCc4c[nH]c5ccccc45)nnc3c2=O)cc1C,105.9,-11.2,/,/
CC1(C)O[C@@H]2CC3C4C[C@H](F)C5=CC(=O)C=C[C@]5(C)[C@@]4(F)[C@@H](O)C[C@]3(C)[C@]2(C(=O)CO)O1 (stereo partly drawn),/,-15.7,86.4,83.2
COc1ccc(C2CNC(=O)C2)cc1OC1CCCC1 (stereo not drawn),101.0&101.9,-41.1&-8.2&10.1&5.4&-5.6&-59.7&-21.7&-37.0,81.1&96.8,83.6&92.6
CCCc1nc(C(C)(C)O)c(C(=O)O)n1Cc1ccc(-c2ccccc2-c2nn[nH]n2)cc1,/,-22.1&-67.6,91.9,83.3
Cc1cc(N2CCN(C)CC2)nc2ccc(NC(=S)NCc3ccco3)cc12,106.3,-16.0,83.7,83.4
COc1cc(C(c2c(C)[nH][nH]c2=O)c2c(C)[nH][nH]c2=O)ccc1OC(=O)c1cccc(C)c1,101.3,-22.5,119.4,77.7
COc1cc2ncnc(Nc3cccc(Cl)c3)c2cc1OC,101.2,12.7&4.5&-12.6&-9.3,/,/
Cc1ccccc1Nc1c(-c2ccc(N(C)C)cc2)nc2ncccn12,124.7,-42.1,/,/
N#Cc1ccc(C(c2ccc(C#N)cc2)n2cncn2)cc1,98.2,-41.1&-27.8&-112.9&-26.6,97.9&94.5,91.5&83.8
COc1ccc(-n2nc3c(N4CCCC(C(=O)NCc5ccccc5C)C4)nnc(C)c3c2C)cc1 (stereo not drawn),105.2,/,100.3,92.5
Cc1cncn1CCc1nc2c3ccccc3nc(SCC(=O)Nc3cccc(Cl)c3)n2n1,111.7,/,154.5,52.4
N[C@@H](Cc1c[nH]c2ccc(O)cc12)C(=O)O,97.7,-21.9,/,/
CCC(NC(C)C)C(O)c1ccc(O)c2[nH]c(=O)ccc12 (stereo not drawn),/,-32.7,91.1,88.4
CC1Cc2ccccc2N1NC(=O)c1ccc(Cl)c(S(N)(=O)=O)c1 (stereo not drawn),106.8,-35.4&-3.5&-15.7&-2.4&-38.0,88.1&100.7,87.7&92.0
CN1CCCN=C1COC(=O)C(O)(c1ccccc1)C1CCCCC1 (stereo not drawn),/,-33.8,94.7,88.3
Cc1cn(C2CC(O)C(CO)O2)c(=O)[nH]c1=O (stereo not drawn),105.7,-17.8&-6.1,80.6,100.7
CCCCn1cnc2cc(NCc3ccccc3Cl)ccc21,106.4,-6.7,1.0*,0.3*
CC(=O)Nc1ccc(CC(=O)O)cc1,/,-50.4,96.8,90.2
CCOC(N)=O,/,-37.7,99.5,94.2
O=S(=O)(c1ccccc1)c1[nH]c(-c2ccccc2)nc1SCc1ccncc1,98.0,9.1,/,/
COc1ccc(-c2cn3cccnc3n2)cc1NC(=O)c1cc(C)cc(C)c1,102.6,/,94.3,63.2
COc1ccc(Cn2c(SCc3ccc(C(=O)NC4CCCC4)cc3)nc3ccncc32)cc1,104.0,-24.9,105.5,76.5
CC12CCC(=O)C=C1CCC1C2CCC2(C)C1CCC2(O)C(=O)CO (stereo not drawn),/,-80.6,88.9,81.2
COc1ccc(-c2cc(=S)ss2)cc1,104.3,-101.0,92.2,81.8
COc1ccc2c(c1)-c1c(ssc1=S)C(C)(C)N2C(=O)CN1C(=O)C2CCCCC2C1=O (stereo not drawn),101.4,-21.7,/,/
c1cnc2cc3c(cc2n1)C1CNCC3C1,107.8,-36.8,/,/
O=C(CSc1nc2ccccc2n1Cc1cccc(Cl)c1)N1CCN(c2ccc(F)cc2)CC1,101.1,7.0,102.1,84.0
NOCC(=O)O,107.6,-1.3,/,/
O=C1OC(Nc2ccc(S(=O)(=O)Nc3ccccn3)cc2)c2ccccc21 (stereo not drawn),111.4,/,85.8,67.9
COc1ccc(CC(=O)Nc2c(C(=O)N3CCN(c4ccccc4F)CC3)oc3ccccc23)cc1OC,100.3,-10.5,81.6,32.8
Oc1ccc(C2CNCCc3c2cc(O)c(O)c3Cl)cc1 (stereo not drawn),105.9&103.6,-35.4&5.1&-22.3&-54.1&-27.9,85.7&97.8,80.2&99.4
Cc1cc(C(=O)N2CCCCC2)c2c(=O)n(CC(=O)Nc3ccc(F)cc3F)c(=O)n(C)c2n1,114.6,-21.6,/,/
Cc1ccc(N(CC2=NCCN2)c2cccc(O)c2)cc1,99.7&100.6,-2.7&-21.3&5.8&-12.0&-2.9&-17.0,99.3&93.7,91.7&93.8
O=C(NCc1noc(C2CCCC2)n1)c1coc(C2CC2)n1,100.8,-0.2,/,/
CC(O)CNC(=O)C(=O)Nc1c2c(nn1-c1ccc(Cl)cc1)CSC2 (stereo not drawn),100.5,/,138.8,78.4
C1COC(NC(C2CC2)C2CC2)=N1,104.5&105.9,-27.0&-6.9&25.9,85.9,78.0
O=S(=O)(c1ccc2nc(N3CCN(C4CCCCC4)CC3)ccc2c1)N1CCCCC1,99.7,-10.7,/,/
O=C(Cn1c(=O)n(Cc2ccco2)c(=O)c2oc3ccccc3c21)Nc1ccccc1,99.4,/,120.2,86.3
Cc1ccc(=O)n(-c2ccccc2)c1,100.1,-13.6&-14.4&-24.7,/,/
O=C(CCCCCn1c(=O)c2sccc2n(CC(=O)Nc2cccc(Cl)c2)c1=O)NCc1ccc2c(c1)OCO2,102.9,-1.6,100.4,90.4
Cc1cccc(N2CCN(C(=O)CCC(=O)NNc3nc4ccccc4c4nc(C)nn34)CC2C)c1 (stereo not drawn),97.2,5.2,92.4,81.9
Cc1nc2c(-c3ccccc3)c(C)[nH]n2c(=O)c1Cc1ccc(Br)cc1,108.4,-2.7,0.1*,0.2*
CCc1ccc(CCOc2ccc(CC3SC(=O)NC3=O)cc2)nc1 (stereo not drawn),96.7,-37.1&-46.4&-26.1&-7.4&-66.8,82.8&87.9&91.8,81.9&78.6&77.3
NC1CCN(c2nc3c(cc2F)c(=O)c(C(=O)O)cn3-c2ccc(F)cc2F)C1 (stereo not drawn),95.5,-32.5&-77.7,-1.0*,-0.1*
O=C(O)c1cccnc1Nc1cccc(C(F)(F)F)c1,97.5&95.3,-24.9&8.6&-6.4&-6.4&-10.8&-15.7&-26.5,83.4,60.0
COc1ccc(-n2c(SCC#N)nc3sc4c(c3c2=O)CCCC4)cc1,101.7,-24.3,/,/
CC(=O)CCCCn1c(=O)c2c(ncn2C)n(C)c1=O,100.1&96.6,-41.1&-35.5&-45.6&-19.2&-15.4,83.2&93.0&92.0,85.4&97.9&88.4
CCCOc1ccc(C2NCCc3c2[nH]c2ccccc32)cc1OC (stereo not drawn),99.8,-16.3,/,/
CN(C1CCCCC1)S(=O)(=O)N1CCCC(C(=O)NCc2ccc3c(c2)OCO3)C1 (stereo not drawn),96.7,-101.1,/,/

# Structures above that contain a halogen, in the order listed:
SMILES,GIV-Gai inh,HCMV UL50-53 inh,Sa growth inh,Sa growth inh second temp
COCCn1c(SCC(=O)Nc2ccc(F)c(Cl)c2)nc2c(oc3ccccc32)c1=O,97.9,-20.6,108.4,71.6
CC1(C)O[C@@H]2CC3C4C[C@H](F)C5=CC(=O)C=C[C@]5(C)[C@@]4(F)[C@@H](O)C[C@]3(C)[C@]2(C(=O)CO)O1 (stereo partly drawn),/,-15.7,86.4,83.2
COc1cc2ncnc(Nc3cccc(Cl)c3)c2cc1OC,101.2,12.7&4.5&-12.6&-9.3,/,/
Cc1cncn1CCc1nc2c3ccccc3nc(SCC(=O)Nc3cccc(Cl)c3)n2n1,111.7,/,154.5,52.4
CC1Cc2ccccc2N1NC(=O)c1ccc(Cl)c(S(N)(=O)=O)c1 (stereo not drawn),106.8,-35.4&-3.5&-15.7&-2.4&-38.0,88.1&100.7,87.7&92.0
CCCCn1cnc2cc(NCc3ccccc3Cl)ccc21,106.4,-6.7,1.0*,0.3*
O=C(CSc1nc2ccccc2n1Cc1cccc(Cl)c1)N1CCN(c2ccc(F)cc2)CC1,101.1,7.0,102.1,84.0
COc1ccc(CC(=O)Nc2c(C(=O)N3CCN(c4ccccc4F)CC3)oc3ccccc23)cc1OC,100.3,-10.5,81.6,32.8
Oc1ccc(C2CNCCc3c2cc(O)c(O)c3Cl)cc1 (stereo not drawn),105.9&103.6,-35.4&5.1&-22.3&-54.1&-27.9,85.7&97.8,80.2&99.4
Cc1cc(C(=O)N2CCCCC2)c2c(=O)n(CC(=O)Nc3ccc(F)cc3F)c(=O)n(C)c2n1,114.6,-21.6,/,/
CC(O)CNC(=O)C(=O)Nc1c2c(nn1-c1ccc(Cl)cc1)CSC2 (stereo not drawn),100.5,/,138.8,78.4
O=C(CCCCCn1c(=O)c2sccc2n(CC(=O)Nc2cccc(Cl)c2)c1=O)NCc1ccc2c(c1)OCO2,102.9,-1.6,100.4,90.4
Cc1nc2c(-c3ccccc3)c(C)[nH]n2c(=O)c1Cc1ccc(Br)cc1,108.4,-2.7,0.1*,0.2*
NC1CCN(c2nc3c(cc2F)c(=O)c(C(=O)O)cn3-c2ccc(F)cc2F)C1 (stereo not drawn),95.5,-32.5&-77.7,-1.0*,-0.1*
O=C(O)c1cccnc1Nc1cccc(C(F)(F)F)c1,97.5&95.3,-24.9&8.6&-6.4&-6.4&-10.8&-15.7&-26.5,83.4,60.0

# Screening results (PubChem BioAssay)
